Bioassay records as filed in PubChem.
D2 ag = agonists of human D2 dopamine receptor (beta-arrestin); DiscoveRx PathHunter D2 beta-arrestin, luminescence, 90 min; 100% = 57 uM dopamine signal; AID 624465; 360,000 tested, 0.084% active; activation, % (test concentration not listed); P14416; in the data active = activation above about 40%; inconclusive = about 15% to 40%; inactive = below about 15%; further: compound concentration not given in the record; the text of the record calls up to 30% inactive
Target sequence (P14416 whole entry, looked up): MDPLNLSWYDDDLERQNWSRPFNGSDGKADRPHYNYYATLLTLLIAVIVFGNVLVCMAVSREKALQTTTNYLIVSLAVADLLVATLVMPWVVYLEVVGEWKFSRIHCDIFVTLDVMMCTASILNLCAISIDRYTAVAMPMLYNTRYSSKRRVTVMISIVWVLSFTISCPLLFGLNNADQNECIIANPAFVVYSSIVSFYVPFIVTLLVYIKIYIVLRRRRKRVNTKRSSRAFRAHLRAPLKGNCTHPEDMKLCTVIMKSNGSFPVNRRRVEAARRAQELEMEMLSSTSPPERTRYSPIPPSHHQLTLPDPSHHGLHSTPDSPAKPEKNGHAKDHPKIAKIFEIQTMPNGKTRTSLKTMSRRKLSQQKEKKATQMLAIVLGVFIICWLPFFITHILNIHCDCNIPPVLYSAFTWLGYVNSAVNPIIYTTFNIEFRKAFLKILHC
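Agonist mode: compounds alone added to overnight-plated D2 PathHunter cells for 90 min at 37 C, with 57 uM final dopamine (EC100) defining full response. Beta-arrestin recruitment detected by chemiluminescent reagent, read after 1 h at ambient temperature.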
PINK1 expr mod = modulators of PINK1 expression; PINK1 immunofluorescence, high-content cytometry, 24 h; Potency, µM (titrated, usually from 76.6 µM), for the others: at the top dose activation (PINK1 increase), usual class: activators; 410,000 tested, 0.2% active; active = well fitted activation curve with a large enough effect; inconclusive = small, poorly fitted or top-dose-only effect; inactive = flat fitted curve, though single readings scatter; cell line not stated here;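 further: potency means the concentration at half of the fitted maximal effect; % of control where 0% means no effect; nearly all actives have a fitted effect of over 65% in size; a mitochondrial uncoupler was the plate control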
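Fluorescence from anti-PINK1 antibody, together with nuclear and cell stains, was scanned on a laser-scanning cytometer. Before staining, stable-line cells were incubated 24 hours with compounds at 5 concentrations; primary antibody 12 h at 10 degrees C.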
CtBP-E1A blk = CtBP/E1A binding inhibition; 340,000 tested, 0.49% active; AID 651724; AlphaScreen GST-E1A/His-CtBP binding, 1536-well; hits give low values; control for the full effect not named in the record; activity change, % (concentration not given with the values); in the data active means activity change below about -65%; inconclusive means about -30% to -65%; inactive means above about -30%; further: on the % scale 0 is the no-effect control and ±100 the full control effect
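Homogeneous bead-based format: GST-tagged E1A captured on glutathione donor beads, His-tagged CtBP on nickel acceptor beads; compounds precede bead addition by 2 h at 37 °C.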
Six1-Eya2 blk = inhibitors of human Six1/Eya2 interaction. AlphaScreen GST-Six1/His-Eya2 binding, biochemical; hits give low values; control for the full effect not named in the record. activity change, % (test concentration not listed). Q15475+O00167. AID 651725. 360,000 tested, 0.56% active; in the data active = activity change below about -65%; inconclusive = about -30% to -65%; inactive = above about -30%; further: on the % scale 0 is the no-effect control and ±100 the full control effect; compound concentration not given in the record
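GST-Six1 + His-Eya2 (5X stock: 250/500 nM); Tris pH 8.0, 300 mM NaCl, 0.05% BSA, 0.02% Tween 20; GSH donor/Ni acceptor beads; 1 h 37 °C dark; AlphaScreen readout.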
TRPML1 ag = agonists of human TRPML1 channel | Q9GZU1 | TRPML1-expressing cells, Ca2+ dye fluorescence, FDSS; host cell line not named in the record; reference of the full effect not given here | activation, % (no concentration beside the values) | 410,000 tested, 0.12% active | AID 624414; in the data active = activation above about 50%; inconclusive = about 30% to 50%; inactive = below about 30%; further: 0% is about no effect; the text of the record puts the active cut at 80%
Target sequence (Q9GZU1 whole entry, looked up): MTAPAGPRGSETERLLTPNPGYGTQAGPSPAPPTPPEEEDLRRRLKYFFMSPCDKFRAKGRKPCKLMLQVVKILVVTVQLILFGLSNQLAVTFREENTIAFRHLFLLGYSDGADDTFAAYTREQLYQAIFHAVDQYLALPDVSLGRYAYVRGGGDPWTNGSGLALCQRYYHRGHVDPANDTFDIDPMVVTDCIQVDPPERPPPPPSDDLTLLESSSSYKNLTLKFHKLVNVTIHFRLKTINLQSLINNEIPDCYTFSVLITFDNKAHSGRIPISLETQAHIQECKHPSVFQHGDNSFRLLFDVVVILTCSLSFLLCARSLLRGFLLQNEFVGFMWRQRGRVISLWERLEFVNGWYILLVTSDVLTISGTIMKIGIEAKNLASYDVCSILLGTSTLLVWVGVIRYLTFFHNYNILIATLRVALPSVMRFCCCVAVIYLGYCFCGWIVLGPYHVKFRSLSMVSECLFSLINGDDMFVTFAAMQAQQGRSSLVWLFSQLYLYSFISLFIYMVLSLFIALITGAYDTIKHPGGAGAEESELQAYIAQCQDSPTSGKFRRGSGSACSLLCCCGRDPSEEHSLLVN
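TRPML1-DL cells, Tet-induced overnight (~16 h, 37 degrees C), loaded 45-90 min at room temperature with Ca8 no-wash calcium dye plus quencher. FDSS fluorescence: 10 s baseline, compound pin-transfer, 110 s agonist read, then EC80 54-4 (4uM final) and 110 s antagonist read.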
D2 potentiator = potentiates the human D2 dopamine receptor allosterically. DiscoveRx D2 beta-arrestin cells, luminescence, 90 min; 100% = 57 uM dopamine signal. potentiation, % (no concentration beside the values). 360,000 tested, 0.23% active. AID 624464; active = potentiation of 50% or more; inconclusive = 30% to 50%; inactive = 30% or less;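 further: compound concentration not given in the record; tested on top of an EC20 dose of dopamine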
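PathHunter beta-arrestin assay in DiscoveRx D2 cells. Compounds were added with an EC20 of dopamine (50 nM final) for 90 min at 37 deg C. Luminescence was read 1 h after detection reagent, with 57 uM dopamine as the EC100 control.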
An asterisk follows results filed as active; ? = inconclusive; . = no result given; & = joins results of further samples; [ ] = another dose, or the depositor's remark.

SMILES | D2 ag | PINK1 expr mod | CtBP-E1A blk | Six1-Eya2 blk | TRPML1 ag | D2 potentiator
CCOC(=O)C1=C(COc2ccccc2)NC(=O)NC1c1ccc(Br)cc1 (stereo not drawn) | -0.6 | 2.8% | -13 | 3 | 0.6 | -3
CCCn1c(=O)c(C(=O)NCc2ccc(OC)c(OC)c2)c(O)c2ccccc21 | 1.9 | 0.0% | 3 | -2 | 1.5 | -5
COc1ccc(-c2cc(C(=O)Nc3c(C)n(C)n(-c4ccccc4)c3=O)no2)cc1 | 1.8 | -0.5%&0.7% | . | 27 | 0.6&-0.5 | -2
CCCc1cnc(Nc2nc(C(N)Cc3ccc(OC)cc3)cs2)nc1 (stereo not drawn) | 5.4 | -1.2% | ? | ? | -0.4 | 5
COC(=O)c1c(NC(=O)CN2C(=O)NC(CCc3ccccc3)C2=O)sc2c1CCCCC2 (stereo not drawn) | 2.2 | 1.3% | -2 | 0 | 1.5 | -9
Cc1cc(NS(=O)(=O)c2ccc(NC(=O)CCCOc3ccccc3)cc2)no1 | 0.4 | -1.0% | 1 | 1 | -0.3 | 10
Cn1c(=O)c2cc(NC(=O)CCc3ccccc3)ccc2n1-c1ccccc1F | -2.5 | 5.4% | -1 | 1 | -0.3 | -10
Cc1nnnn1/C(=C\c1ccccc1)C(=O)OCC(=O)N(C)C1CCS(=O)(=O)C1 (stereo not drawn) | -2.9 | 0.3% | -3 | 2 | -0.2 | -7
CC(=O)Nc1cccc(Oc2nc(NCCN(C)C)nc3ccsc23)c1 | -4.2 | -0.2% | -1 | 0 | -0.6 | -15
O=C(NC1CCCCC1)C(c1ccco1)N(Cc1cccnc1)C(=O)C1COc2ccccc2O1 (stereo not drawn) | -1.9 | 1.8%[38.3 µM] | -1 | -2 | -0.2 | 1
CN(C(=O)c1cccc(NC(=O)Cc2cccc(NC(=O)C3CCCN(C(=O)C4CCC4)C3)c2)c1)C1CCC1 (stereo not drawn) | 2.9 | 0.9% | 0 | 0 | 3.8 | 13
O=C(NCc1ccco1)c1cnn2c1NC(c1ccccc1)CC2C(F)(F)F (stereo not drawn) | 0.2 | 21%[38.3 µM] | 6 | -5 | 1.9 | -2
C=CCn1c(O)c(N=NC(=O)C(O)c2ccccc2)c2ccccc21 (stereo not drawn) | -9.1 | -0.1% | -2 | 0 | . | -11
O=C1/C(=C/c2cccnc2)SC(=S)N1Cc1ccco1 | 1.7 | 6.1% | -5 | -21 | 0.3 | 15
CCN(CC)S(=O)(=O)N1CCC(C(=O)NCCN2CCOCC2)CC1 | -3.7 | 1.5%[38.3 µM] | 3 | 2 | -0.2 | -16
O=C(COc1ccc(Br)cc1Cl)NC(=O)NCc1ccccc1 | 0.5 | 9.5% | -16 | 0 | 0.6 | -16
Cc1ncoc1C(=O)Nc1cccc(Cl)c1C | 1.5 | -3.1%[38.3 µM] | 1 | 5 | -0.5 | -8
CC1CN(S(=O)(=O)c2cccc(C(=O)NCc3ccco3)c2)CC(C)O1 (stereo not drawn) | -0.5 | 1.7% | -2 | 1 | -0.2 | -2
CCOC(=O)N=Nc1c(O)n(C)c2ccccc12 | -2.9 | 1.1% | -13 | -8 | 0.2 | -20
COC(=O)c1ccsc1NC(=O)c1ccc(Cl)s1 | -2.8 | 2.3% | 5 | 12 | 0.7 | -9
Nc1cc(C(=O)OCC(=O)N2CCOCC2)ccc1Cl | 3.5 | 0.5% | -1 | 11 | 0.1 | -1
CS(=O)(=O)N(CC(=O)Nc1ccccc1Cl)c1ccc(Cl)cc1 | -4.1 | 1.9% | -9 | 6 | -0.7 | -21
c1cc(-c2nnc3sc(C4CCCCC4)nn23)ccn1 | -1.3 | -2.0% | 5 | 22 | 1.2 | -1
CC(C)C[C@H]1C(=O)N2CCC[C@H]2[C@]2(O)O[C@](NC(=O)[C@@H]3C=C4c5cccc6[nH]c(Br)c(c56)CC4N(C)C3)(C(C)C)C(=O)N12 (stereo partly drawn) | 55* | 2.7% | -11 | -8 | 0.5 | ?

3 entries out of the list above, arranged by the number in PINK1 expr mod, largest number first.
SMILES	D2 ag	PINK1 expr mod	CtBP-E1A blk	Six1-Eya2 blk	D2 potentiator
O=C(COc1ccc(Br)cc1Cl)NC(=O)NCc1ccccc1	0.5	9.5%	-16	0	-16
CC(C)C[C@H]1C(=O)N2CCC[C@H]2[C@]2(O)O[C@](NC(=O)[C@@H]3C=C4c5cccc6[nH]c(Br)c(c56)CC4N(C)C3)(C(C)C)C(=O)N12 (stereo partly drawn)	55*	2.7%	-11	-8	?
COC(=O)c1ccsc1NC(=O)c1ccc(Cl)s1	-2.8	2.3%	5	12	-9

Quoted at random: seven compounds from above.
SMILES | D2 ag | PINK1 expr mod | CtBP-E1A blk | Six1-Eya2 blk | TRPML1 ag | D2 potentiator
COC(=O)c1ccsc1NC(=O)c1ccc(Cl)s1 | -2.8 | 2.3% | 5 | 12 | 0.7 | -9
c1cc(-c2nnc3sc(C4CCCCC4)nn23)ccn1 | -1.3 | -2.0% | 5 | 22 | 1.2 | -1
CCOC(=O)N=Nc1c(O)n(C)c2ccccc12 | -2.9 | 1.1% | -13 | -8 | 0.2 | -20
Nc1cc(C(=O)OCC(=O)N2CCOCC2)ccc1Cl | 3.5 | 0.5% | -1 | 11 | 0.1 | -1
CC1CN(S(=O)(=O)c2cccc(C(=O)NCc3ccco3)c2)CC(C)O1 (stereo not drawn) | -0.5 | 1.7% | -2 | 1 | -0.2 | -2
O=C(COc1ccc(Br)cc1Cl)NC(=O)NCc1ccccc1 | 0.5 | 9.5% | -16 | 0 | 0.6 | -16
Cc1ncoc1C(=O)Nc1cccc(Cl)c1C | 1.5 | -3.1%[38.3 µM] | 1 | 5 | -0.5 | -8

(cont.)
SMILES | D2 ag | PINK1 expr mod | CtBP-E1A blk | Six1-Eya2 blk | TRPML1 ag | D2 potentiator
Cc1ccc(NC(NC(=O)c2cccs2)C(Cl)(Cl)Cl)cc1C (stereo not drawn) | 3.3 | 3.8% | 0 | -3 | 1.4 | -14
Cc1ccc(NC(=O)N2CCOCC2)cc1NC(=O)N1CCOCC1 | -7.7 | 0.0% | 4 | 0 | 0.3 | -12
CCN(C(=O)c1c(-c2ccccc2)noc1C)c1ccccc1 | -0.9 | -4.1% | 2 | 1 | -0.6 | -6
Cc1nc(C(F)(F)F)c(C(=O)O)cc1-c1nc(-c2ccccc2)cs1 | -5.3 | 0.0% | . | -8 | 0.4 | -3
Nc1ccccc1/C=N\N=C/c1ccccc1N | -2.4 | 0.2% | -16 | -8 | 2.0 | -4
CCCCn1c(SCC(=O)c2c(N)n(C3CC3)c(=O)[nH]c2=O)nc2cc(S(N)(=O)=O)ccc21 | -3.8 | 1.0% | -16 | -3 | -0.5 | -3
COc1ccc(-c2cnc(SCC(=O)Nc3cc(C)on3)n2Cc2ccco2)cc1 | 2.4 | 1.5% | -11 | -18 | 1.1 | -6
CCOc1ccc(OCCN2CCCCC2)cc1 | -1.9 | -0.7% | 2 | 0 | -0.5 | -19
Cc1oc(-c2cccc(Cl)c2)nc1CN1CCC(C(=O)NCc2ccco2)CC1 | -4.7 | -1.4% | -22 | -20 | 0.0 | -31
CCS(=O)(=O)N1Cc2ccccc2CC1C(=O)Nc1nnc(SCc2ccc(C#N)cc2)s1 (stereo not drawn) | 2.6 | 0.0% | -7 | -8 | -0.6 | 3
O=C(Cc1cccc(NC(=O)C2CCN(C(=O)c3ccccc3)CC2)c1)Nc1cccc(C(=O)N2CCCCC2)c1 | 1.1 | 0.4% | 1 | 5 | 3.2 | 5
Cc1ccccc1NC(=O)c1cccc(C(=O)Nc2ccccc2C)c1 | -0.6 | 6.5% | -3 | 6 | 0.0 | -8
O=C(CN(Cc1ccccc1)C(=O)CNS(=O)(=O)c1ccccc1)NCc1ccco1 | -3.3 | 3.7% | 0 | 4 | -1.0 | -10
CCc1cc(/C(Cc2cscn2)=N\O)c(O)cc1O | -0.3 | -0.9% | 8 | 3 | -0.6 | -23
O=C1NCN(c2ccccc2)C12CCN(CCCC(c1ccc(F)cc1)c1ccc(F)cc1)CC2 | -6.8 | 0.6% | -22 | 0 | -0.6 | -33
CCNC(=O)CN(c1ccc(Cl)cc1)S(=O)(=O)c1ccccc1 | -1.2 | 2.5% | -2 | 0 | -0.9 | 11
Cc1c(C(=O)N2CCN(C/C=C/c3ccccc3)CC2)oc2c(F)cccc12 | -0.3 | 3.4% | 1 | -6 | 0.7 | -30
Cc1ccc2oc(=O)n(CC(=O)N3CCOCC3)c2c1 | -3.9 | 2.1% | . | -1 | -1.0 | -19
COc1ccc(/C=N/NC(=O)c2cccc(NC(=O)c3ccccc3)c2)c(C(=O)O)c1OC | -1.2 | -0.6% | -2 | -5 | 0.5 | 1
O=C(CCCN1C(=O)/C(=C/c2ccc3c(c2)OCO3)SC1=S)Nc1ccc(C(=O)O)cc1 | -5.0 | -1.4% | 1 | -11 | 1.5 | -24
CCOc1ccccc1N1C(=O)CC(Sc2ccccc2N)C1=O (stereo not drawn) | -1.6 | 1.1% | 2 | 0 | -1.1 | 11
C=CCNC(=O)C(=O)c1cccn1-c1ccsc1C(=O)OC | 1.5 | -1.5% | 9 | 3 | -0.8 | -2
Cc1cccn2c(CNCC3(c4ccccc4)CCCC3)c(C(=O)N3CCOCC3)nc12 | 7.3 | -1.7% | -2 | 2 | 2.5 | 8
NC(CO)c1csc(NC(=O)Nc2ccccc2Cc2ccccc2)n1 (stereo not drawn) | 4.9 | 4.4% | ? | ? | -0.6 | 4
CCc1noc(C)c1C(=O)N1CCCC(Nc2cccc(F)c2)C1 (stereo not drawn) | -0.9 | -0.1% | 7 | 5 | 0.0 | -6
O=C1CCN(Cc2ccco2)C(=S)N1 | -0.7 | 1.4% | 4 | 7 | 0.0 | -2
Cc1ccc2ccccc2c1C(O)c1ncc(-c2ccc(Cl)cc2)[nH]1 (stereo not drawn) | -6.2 | ? | -6 | -17 | 0.1 | -21
Cc1ccc(C(=O)OCC(=O)Nc2cccc(Cl)c2C)c(O)c1 | 0.0 | 3.6% | 1 | 5 | . | -4
COc1ccc(-c2nc(CN3CCN(Cc4cccc(Cl)c4)CC3)c(C)o2)cc1 | -1.9 | 8.3% | . | -3 | -1.0 | -48
COc1ccc(OC)c(NC(=O)C2CCN(C(=O)C3CC(=O)N(c4ccc(C)cc4)C3)CC2)c1 (stereo not drawn) | 1.2 | 3.5% | -10 | -1 | -0.6 | -6
Cc1ccc(NC(=O)COc2ccccc2C#N)cc1S(=O)(=O)N1CCCCCC1 | 12 | 0.6% | 0 | -3 | 3.0 | 1
Cn1c(=O)c2c(nc(CN3CCOCC3)n2CC(=O)c2ccccc2)n(C)c1=O | -1.0 | 1.6% | 0 | -4 | 0.9 | 1
CCCN(CCC)S(=O)(=O)c1ccc(C(=O)Nc2nnc(CSC)o2)cc1 | 0.0 | 0.0% | -16 | -11 | 0.7 | 13
CC(=O)OCc1c(C(F)(F)F)nn(C)c1Oc1cccc(C(F)(F)F)c1 | -1.5 | . | 0 | 8 | 0.1 | -9
O=S(=O)([N-]c1nc2ccccc2nc1-n1cc[n+](Cc2ccccc2)c1)c1ccccc1 | -4.5 | -1.8% | -3 | 9 | 0.3 | -8
